# UUG fidelity = modulators of start codon recognition fidelity in yeast; S. cerevisiae UUG-firefly luciferase reporter, luminescence/redox ratio; activity score, % at 18.7 µM; hit rate 0.13% among 350,000;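 active means replicate mean at a twofold rise or more, about +100% in these data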;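 further: firefly luciferase made from a UUG start codon reports start codon fidelity; reporter light over untreated wells divided by growth signal over untreated wells; some hits fall short of that in this replicate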
# HIV Env fusion = blocks HIV Env-driven cell-cell fusion; HeLa-JRFL Env/CEM21 cell fusion, luciferase; inhibition, % at 12.3 µM; hit rate 1.1% among 360,000; AID 651610;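 active means mean replicate inhibition score of at least 50 and every replicate individually at or above 50; inconclusive means only one of the two criteria met; inactive means mean below 50 and not all replicates reaching 50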;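 further: 0% = plate neutral controls and 100% = maraviroc near 300 nM; one replicate is shown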
# The depositor's hits bear a star; ? = inconclusive; [ ] = dose if it differs, or a comment. An excerpt; count on the stated rates, not on these rows.
SMILES,UUG fidelity,HIV Env fusion
COc1ccc(NC(=O)Nc2ccc3c(c2)C(=O)N([C@@H](C)CO)C[C@@H](C)[C@@H](CN(C)S(=O)(=O)c2ccccc2)O3)cc1,-3.8,7.5[16.7 µM]
CC(C)NC(=O)Nc1ccc2c(c1)C(=O)N([C@@H](C)CO)C[C@@H](C)[C@H](CN(C)Cc1ccccc1)OCCCC[C@@H](C)O2,14.1,1.4[16.7 µM]
C[C@@H]1CN([C@H](C)CO)C(=O)c2cc(C#CC3CCCC3)cnc2O[C@@H]1CN(C)S(=O)(=O)c1cccc(F)c1,6.2,1.9[16.7 µM]
C[C@H]1CN([C@@H](C)CO)C(=O)c2cc(-c3ccccc3F)cnc2O[C@H]1CN(C)C(=O)C1CCC1,-8.9,5.1[16.7 µM]
C[C@H](O)C#Cc1ccc2c(c1)O[C@H](CN(C)CC1CCOCC1)[C@H](C)CN([C@H](C)CO)S2(=O)=O,-7.4,21.8[16.7 µM]
CCC(=O)N(C)C[C@H]1Oc2ncc(C#C[C@@H](C)O)cc2C(=O)N([C@H](C)CO)C[C@@H]1C,3.7,14.0[16.7 µM]
C[C@@H]1CN([C@@H](C)CO)C(=O)c2cc(NC(=O)c3ccncc3)ccc2O[C@@H](C)CCCCO[C@@H]1CN(C)C(=O)C1CCCCC1,15.2,18.0[16.7 µM]
Cc1cccc(S(=O)(=O)N(C)C[C@@H]2OCc3cn(nn3)CCCC(=O)N([C@@H](C)CO)C[C@@H]2C)c1,-19.2,-2.0[16.7 µM]
C[C@H](O)C#Cc1ccc2c(c1)O[C@H](CN(C)C(=O)C1CCC1)[C@@H](C)CN([C@H](C)CO)S2(=O)=O,4.5,-2.1[16.7 µM]
C[C@@H]1CCCCO[C@@H](CN(C)C(=O)Nc2ccc(C(F)(F)F)cc2)[C@H](C)CN([C@@H](C)CO)C(=O)c2cc(NC(=O)Cc3ccccc3)ccc2O1,-15.3,-12.0[16.7 µM]
C[C@H](CO)N1C[C@H](C)[C@H](CN(C)S(=O)(=O)c2ccccc2)Oc2cc(C#Cc3ccncc3)ccc2S1(=O)=O,26.2,15.1[16.7 µM]
C[C@H]1CN([C@@H](C)CO)C(=O)c2cc(NC(=O)Nc3cccc4ccccc34)ccc2O[C@@H]1CN(C)Cc1ccc(C(F)(F)F)cc1,10.5,16.6[16.7 µM]
O=C(CN1CCOCC1)NCC[C@H]1CC[C@H](NC(=O)c2ccc3c(c2)OCO3)[C@H](CO)O1,47.8,-28.5[16.7 µM]
Cc1ccc(S(=O)(=O)Nc2ccc3c(c2)C(=O)N([C@@H](C)CO)C[C@@H](C)[C@H](CN(C)C(=O)Nc2ccc(C(F)(F)F)cc2)OCCCC[C@@H](C)O3)cc1,-6.2,18.8[16.7 µM]
COCCOC(=O)N1C(=O)[C@@]2(c3cc(C#CCCO)ccc31)[C@H](c1ccccc1OCCO)N1[C@H](c3ccccc3)[C@H](c3ccccc3)OC(=O)[C@H]1[C@@H]2C(=O)N1CCc2cc(OC)c(OC)cc2C1,4.3,-58.8[16.7 µM]
Cc1noc(C)c1S(=O)(=O)Nc1ccc2c(c1)C(=O)N([C@H](C)CO)C[C@H](C)[C@@H](CN(C)Cc1ccncc1)OCCCC[C@@H](C)O2,-11.1,15.8[16.7 µM]
Cc1noc(C)c1NC(=O)Nc1ccc2c(c1)CC(=O)N([C@H](C)CO)C[C@@H](C)[C@@H](CN(C)C(=O)NC1CCCCC1)O2,-9.9,-28.6[16.7 µM]
Cc1ccccc1S(=O)(=O)NCC[C@H]1CC[C@@H](NC(=O)C2CCCC2)[C@H](CO)O1,20.8,-8.9[16.7 µM]
C/C=C/c1cnc2c(c1)C(=O)N([C@@H](C)CO)C[C@@H](C)[C@H](CN(C)S(=O)(=O)c1ccccc1F)O2,11.9,-2.9[16.7 µM]
C[C@H](CO)N1C[C@H](C)[C@H](CN(C)C(=O)Nc2ccc3c(c2)OCO3)Oc2c(NC(=O)Nc3ccccc3)cccc2C1=O,-6.0,1.8[16.7 µM]

# Full records, looked up by structure. Values in the order: UUG fidelity	HIV Env fusion
# `C[C@H]1CN([C@@H](C)CO)C(=O)c2cc(-c3ccccc3F)cnc2O[C@H]1CN(C)C(=O)C1CCC1` across the screens: -8.9	5.1[16.7 µM]
# `C[C@H]1CN([C@@H](C)CO)C(=O)c2cc(NC(=O)Nc3cccc4ccccc34)ccc2O[C@@H]1CN(C)Cc1ccc(C(F)(F)F)cc1` across the screens: 10.5	16.6[16.7 µM]
# `C[C@H](CO)N1C[C@H](C)[C@H](CN(C)S(=O)(=O)c2ccccc2)Oc2cc(C#Cc3ccncc3)ccc2S1(=O)=O` across the screens: 26.2	15.1[16.7 µM]
# `C[C@@H]1CCCCO[C@@H](CN(C)C(=O)Nc2ccc(C(F)(F)F)cc2)[C@H](C)CN([C@@H](C)CO)C(=O)c2cc(NC(=O)Cc3ccccc3)ccc2O1` across the screens: -15.3	-12.0[16.7 µM]
# `C[C@@H]1CN([C@H](C)CO)C(=O)c2cc(C#CC3CCCC3)cnc2O[C@@H]1CN(C)S(=O)(=O)c1cccc(F)c1` across the screens: 6.2	1.9[16.7 µM]

# Additional entries follow:
SMILES,UUG fidelity,HIV Env fusion
C[C@@H]1CCCCO[C@@H](CN(C)C(=O)Cc2ccccc2)[C@H](C)CN([C@@H](C)CO)C(=O)c2cc(NC(=O)Cc3ccccc3)ccc2O1,20.6,-42.7[16.7 µM]
Cc1ccccc1-c1cnc2c(c1)C(=O)N([C@H](C)CO)C[C@@H](C)[C@@H](CN(C)C(=O)CN(C)C)O2,-1.9,0.0[16.7 µM]
C[C@@H]1CCCCO[C@@H](CN(C)S(=O)(=O)c2cn(C)cn2)[C@H](C)CN([C@H](C)CO)C(=O)c2cc(NS(=O)(=O)c3ccc(F)cc3)ccc2O1,6.7,7.4[16.7 µM]
Cc1ccc(S(=O)(=O)Nc2ccc3c(c2)CC(=O)N([C@@H](C)CO)C[C@H](C)[C@@H](CN(C)C(=O)Nc2c(C)noc2C)O3)cc1,-1.3,0.7[16.7 µM]
COc1ccc(NC(=O)N(C)C[C@@H]2Oc3ccc(NC(=O)Nc4cccc5ccccc45)cc3C(=O)N([C@@H](C)CO)C[C@@H]2C)cc1,-7.4,-1.2[16.7 µM]
C[C@@H]1CCCCO[C@@H](CN(C)C(=O)CCCN(C)C)[C@H](C)CN([C@@H](C)CO)C(=O)c2cc(NC(=O)Nc3cccc4ccccc34)ccc2O1,4.2,-12.2[16.7 µM]
O=C1O[C@H](c2ccccc2)[C@H](c2ccccc2)N2[C@H]1[C@@H](C(=O)NC[C@H](O)c1ccccc1)[C@]1(C(=O)Nc3ccc(C#CC4=CCCCC4)cc31)[C@H]2c1ccc(OCCO)cc1,-2.2,?
O=C1C2C=C(I)[C@H](C[C@@H]2OCCCCCCO)[C@@]12CO2,11.4,10.1[16.7 µM]
COCC(=O)Nc1ccc2c(c1)C(=O)N(C)[C@@H]1CC[C@H](CC(=O)NCC3CC3)O[C@@H]1CO2,-0.3,3.1[16.7 µM]
C/C=C/c1ccc2c(c1)O[C@H](CN(C)C(=O)c1cccnc1)[C@@H](C)CN([C@H](C)CO)S2(=O)=O,-18.2,18.2[16.7 µM]
O=C(C[C@H]1CC[C@@H](NC(=O)c2ccc(F)cc2)[C@@H](CO)O1)NCCc1ccncc1,-18.0,3.2[16.7 µM]
COc1ccc(NC(=O)Nc2ccc3c(c2)C(=O)N([C@@H](C)CO)C[C@@H](C)[C@H](CN(C)Cc2ccc(C(=O)O)cc2)O3)cc1,-4.1,2.1[16.7 µM]
C[C@@H]1CCCCO[C@H](CN(C)S(C)(=O)=O)[C@H](C)CN([C@@H](C)CO)C(=O)c2cc(NC(=O)CCCN(C)C)ccc2O1,-5.6,16.4[16.7 µM]
COC(=O)C[C@@H]1C[C@H]2c3cc(NS(=O)(=O)c4ccc(OC)cc4)ccc3O[C@H]2[C@@H](CO)O1,-18.7,7.6[16.7 µM]
C[C@H](CO)N1C[C@H](C)[C@H](CN(C)C(=O)Nc2cccc3ccccc23)OCCCC[C@H](C)Oc2ccc(NS(C)(=O)=O)cc2C1=O,-11.1,28.2[16.7 µM]
CCCNC(=O)N(C)C[C@H]1Oc2ncc(C#Cc3ccccc3F)cc2C(=O)N([C@@H](C)CO)C[C@H]1C,-11.0,1.5[16.7 µM]
C[C@H]1CN([C@@H](C)CO)C(=O)Cc2cc(NS(C)(=O)=O)ccc2O[C@@H]1CN(C)Cc1ccccc1,18.2,-13.2[16.7 µM]
C[C@@H]1CCCCO[C@@H](CN(C)C(=O)Nc2ccccc2)[C@@H](C)CN([C@@H](C)CO)C(=O)c2cc(NC(=O)c3ccccc3)ccc2O1,5.9,18.4[16.7 µM]
C[C@@H]1CN([C@H](C)CO)S(=O)(=O)c2ccc(-c3cccc(F)c3)cc2O[C@@H]1CN(C)S(=O)(=O)c1ccc(F)cc1,-15.4,55.7*[16.7 µM]
Cc1ccc(S(=O)(=O)N(C)C[C@H]2OCCCC[C@H](C)Oc3ccc(NC(=O)c4ccccc4)cc3C(=O)N([C@H](C)CO)C[C@@H]2C)cc1,-2.9,-32.7[16.7 µM]
COc1ccccc1NC(=O)N[C@H]1CC[C@H](CC(=O)N[C@H](C)c2ccccc2)O[C@H]1CO,-5.6,-1.9[16.7 µM]
C[C@@H]1CN([C@H](C)CO)C(=O)c2cc(NC(=O)c3ccncc3)ccc2O[C@@H]1CN(C)C(=O)Nc1ccc(C(F)(F)F)cc1,-10.5,0.2[16.7 µM]
CCC(=O)N(C)C[C@@H]1Oc2ncc(C#Cc3cccnc3)cc2C(=O)N([C@@H](C)CO)C[C@H]1C,-4.5,-13.7[16.7 µM]
C[C@@H]1CCCCO[C@@H](CN(C)C(=O)Nc2ccc(F)cc2)[C@H](C)CN([C@@H](C)CO)C(=O)c2cc(NC(=O)NC3CCCCC3)ccc2O1,-11.8,-9.4[16.7 µM]
CCS(=O)(=O)NCC[C@H]1CC[C@@H](NS(=O)(=O)c2ccccc2C)[C@H](CO)O1,-4.8,-4.3[16.7 µM]
O=C(C[C@@H]1CC[C@@H]2[C@H](COC[C@H](O)CN2S(=O)(=O)c2ccccc2)O1)NCCN1CCCCC1,-10.8,-2.6[16.7 µM]
C/C=C/c1cnc2c(c1)C(=O)N([C@H](C)CO)C[C@@H](C)[C@@H](CN(C)C(=O)c1cccc(F)c1)O2,13.8,-4.7[16.7 µM]
C[C@@H]1CN([C@@H](C)CO)C(=O)c2cc(Br)cnc2O[C@@H]1CN(C)C(=O)c1ccc(F)cc1,-4.2,-25.8
COc1ccccc1S(=O)(=O)N[C@H]1CC[C@@H](CCn2cc(C3CC3)nn2)O[C@@H]1CO,6.5,21.0[16.7 µM]
C[C@H]1CN([C@@H](C)CO)C(=O)Cc2cc(NS(C)(=O)=O)ccc2O[C@H]1CN(C)Cc1ccc2c(c1)OCO2,11.5,25.6[16.7 µM]
C[C@H](CO)N1C[C@H](C)[C@H](CN(C)Cc2ccccn2)Oc2cc(-c3cncnc3)ccc2S1(=O)=O,124.2*,-1.6[16.7 µM]
O=C(CC1CC1)N[C@@H]1CC[C@@H](CCNS(=O)(=O)c2ccc(Cl)cc2)O[C@@H]1CO,-12.2,8.6[16.7 µM]
C[C@H](CO)N1C[C@H](C)[C@H](CN(C)CC2CC2)Oc2cc(-c3ccc(C#N)cc3)ccc2S1(=O)=O,2.0,-7.1[16.7 µM]
COCC(=O)N(C)C[C@@H]1Oc2cc(C#CC(C)C)ccc2S(=O)(=O)N([C@@H](C)CO)C[C@@H]1C,-0.8,?
COc1cccc(S(=O)(=O)N[C@H]2CC[C@@H](CC(=O)NC3CCC3)O[C@H]2CO)c1,-10.2,-2.0[16.7 µM]
C[C@H](CO)N1C[C@H](C)[C@H](CN(C)Cc2ccccc2)Oc2ncc(C3=CCCCC3)cc2C1=O,-8.4,26.3[16.7 µM]
C[C@@H]1CCCCO[C@H](CN(C)C)[C@@H](C)CN([C@H](C)CO)C(=O)c2cc(NC(=O)c3ccccc3)ccc2O1,-0.5,9.6[16.7 µM]
CCCN(C)C[C@H]1Oc2cc(C#CCN(C)C)ccc2S(=O)(=O)N([C@@H](C)CO)C[C@H]1C,-11.9,-6.9[16.7 µM]
COc1ccc(-c2ccc([C@H]3[C@H](C#N)N(C(=O)NC(C)C)[C@H]3CO)cc2)cc1,9.2,11.2[16.7 µM]
O=C(Cc1ccccn1)NCC[C@@H]1CC[C@H](NC(=O)c2ccccc2F)[C@H](CO)O1,3.4,-5.2[16.7 µM]
C[C@H]1CCCCO[C@H](CN(C)S(=O)(=O)c2cn(C)cn2)[C@@H](C)CN([C@@H](C)CO)C(=O)c2cc(NC(=O)CCC(F)(F)F)ccc2O1,11.9,20.9[16.7 µM]
C[C@@H]1CN([C@@H](C)CO)C(=O)Cc2cc(NC(=O)CCC(F)(F)F)ccc2O[C@H]1CN(C)S(=O)(=O)c1cn(C)cn1,-6.1,-1.5[16.7 µM]
C[C@@H]1CN([C@H](C)CO)C(=O)c2cc(C#CC3(O)CCCC3)cnc2O[C@H]1CN(C)C(=O)CC1CC1,4.8,-18.8[16.7 µM]
C[C@@H]1CN([C@@H](C)CO)C(=O)c2cccc(NS(=O)(=O)c3ccc(F)cc3)c2O[C@H]1CN(C)CC1CC1,3.9,0.9[16.7 µM]
CNC[C@@H]1Oc2ccc(NC(=O)Nc3ccc4c(c3)OCO4)cc2CC(=O)N([C@H](C)CO)C[C@H]1C,-2.8,-1.0[16.7 µM]
C[C@@H]1CN([C@@H](C)CO)C(=O)c2cc(N(C)C)ccc2O[C@@H](C)CCCCO[C@H]1CN(C)C(=O)c1ccncc1,19.4,10.0[16.7 µM]
C[C@@H]1CN([C@H](C)CO)C(=O)c2cccc(NC(=O)c3ccncc3)c2O[C@@H]1CN(C)C(=O)Nc1cccc2ccccc12,-12.2,-11.5[16.7 µM]
COc1cccc(NC(=O)N(C)C[C@@H]2Oc3cc(-c4cccc(C(=O)N(C)C)c4)ccc3S(=O)(=O)N([C@H](C)CO)C[C@H]2C)c1,-2.7,-9.1[16.7 µM]
C[C@H]1CN([C@@H](C)CO)S(=O)(=O)c2ccc(C3=CCCC3)cc2O[C@H]1CN(C)C(=O)c1ccccc1,7.2,30.2[16.7 µM]

# Assay outcomes (PubChem BioAssay)
